Screening results from PubChem.
Mtb H37Rv = M. tuberculosis H37Rv growth inhibitors, H37Rv strain (AID 1626). 220,000 tested, 0.95% active. inhibition, % at 10 µM; hits with a dose series show IC50 in µM. M. tuberculosis H37Rv growth inhibition; higher % means a stronger effect;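 active = confirmed in a dose series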;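 note: bacteria incubated seven days before Alamar blue readout; 0% = bacteria only wells and 100% = bacteria with antibiotic wells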
RecA splice inh = Mtb RecA intein splicing inhibitors, primary screen, biochemical, fluorescence, HTS; AID 2221, 2009; cell-free RecA intein splicing; Protein RecA (Mycobacterium tuberculosis (strain ATCC 25618 / H37Rv)), P9WHJ3; inhibition, %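 (about 9 µM by stock and volumes)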; 290,000 tested, 0.75% active; in the data active = inhibition above about 30%;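 note: 0% = vehicle wells and 100% = reference inhibitor control wells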
Target sequence (P9WHJ3 whole entry, looked up, canonical isoform): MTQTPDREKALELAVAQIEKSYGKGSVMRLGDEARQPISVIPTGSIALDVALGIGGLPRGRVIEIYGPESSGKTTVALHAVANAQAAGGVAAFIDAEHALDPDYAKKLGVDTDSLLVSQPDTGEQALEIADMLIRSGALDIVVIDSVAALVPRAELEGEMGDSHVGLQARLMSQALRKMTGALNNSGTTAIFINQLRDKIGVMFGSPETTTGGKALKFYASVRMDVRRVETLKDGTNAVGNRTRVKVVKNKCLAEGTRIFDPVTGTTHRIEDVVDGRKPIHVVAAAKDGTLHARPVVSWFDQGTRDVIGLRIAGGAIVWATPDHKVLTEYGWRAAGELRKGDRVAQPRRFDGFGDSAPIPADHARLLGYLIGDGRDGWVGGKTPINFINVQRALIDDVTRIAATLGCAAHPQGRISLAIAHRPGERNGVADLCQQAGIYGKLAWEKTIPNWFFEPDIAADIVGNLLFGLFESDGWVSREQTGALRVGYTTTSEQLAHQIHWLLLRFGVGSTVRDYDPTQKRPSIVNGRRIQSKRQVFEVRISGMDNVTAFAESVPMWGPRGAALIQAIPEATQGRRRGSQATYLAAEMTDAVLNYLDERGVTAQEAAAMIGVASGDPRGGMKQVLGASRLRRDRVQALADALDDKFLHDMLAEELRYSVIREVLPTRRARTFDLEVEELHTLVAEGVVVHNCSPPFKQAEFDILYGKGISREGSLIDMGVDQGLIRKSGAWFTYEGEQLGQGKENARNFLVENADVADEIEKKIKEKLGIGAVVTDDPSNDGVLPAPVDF
YopH inh = YopH tyrosine phosphatase inhibitors, primary screen, biochemical, fluorescence Ex485/Em525; inhibition, %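 (about 10 µM by stock and volumes)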; 140,000 tested, 0.16% active; AID 898, 2007;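 active = inhibition of 50% or more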;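 note: controls were vehicle for no effect and minimum signal wells for full effect; inactives centre near -20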
Arbovirus anti = antivirals against arbovirus infection, primary screen, cell-based, full library, 10K replicate subset | arbovirus infection cell-based antiviral screen | inhibition, % at 10 µM | 200,000 tested, 0.37% active | AID 1251, 2008;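 active = inhibition from about 30%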;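 note: bluetongue infection of BSR cells; cell survival read as ATP light after 72 h; 0% = infected wells without compound and 100% = uninfected wells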
Mtb betalactam = beta-lactam sensitization of Mtb H37Rv, H37Rv. inhibition, % at 25 µM. M. tuberculosis H37Rv growth with meropenem, percent inhibition; hits of this screen are not shown here. 330,000 tested, 0.27% active;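 active = about 74% or more and at least 40 points above the plate without the antibiotic, then above 30% in a dose series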;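 note: growth measured after seven days incubation then overnight dye step; 0% = bacteria only wells and 100% = bacteria with antibiotic; twin plates without the antibiotic show which effects depend on it; some results filed as inactive read as strong as hits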
Arbovirus anti repeat = also measured in Arbovirus anti; calls as there; inhibition, %; measured here: 10K subset replicate screen; many hits read low in the repeat;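 first of two repeat runs on a subset; 0% = infected and 100% = uninfected wells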
The depositor's hits bear a star; / = no result given.

SMILES	Mtb H37Rv	RecA splice inh	YopH inh	Arbovirus anti	Mtb betalactam	others
COc1ccc2[nH]cc(CCNC(=O)C3CCCO3)c2c1 (stereo unspecified)	1.6%	4.0	/	-2.2	1.3
COc1ccccc1N1CCN(C2CC(=O)N(c3cccc(Br)c3)C2=O)CC1 (stereo unspecified)	/	1.5	/	/	1.3
O=C(c1ccccc1)c1ccc(N2CCN(C(=O)c3cccc(F)c3F)CC2)c(F)c1	/	11.3	/	/	7.8
Cn1c2ccccc2c2ncn(Cc3ccco3)c(=O)c21	-0.2%	1.0	-10.9	-1.4	-0.9
CC1COC2C(O1)N(S(C)(=O)=O)CCN2S(C)(=O)=O (stereo unspecified)	-2.6%	0.6	-20.4	3.5	6.5	Arbovirus anti repeat=6.2
COc1ccccc1C(O)(C(=O)NN(C)c1ccccc1)c1ccccc1OC	-6.5%	-0.2	-34.7	0.2	-6.4
COC(=O)c1ccc(Cn2cnc3c(cnn3-c3ccc(Cl)cc3)c2=O)o1	-2.4%	0.0	-1.3	1.1	1.3
Oc1ccc(C[C@H]2CNCCN2CCc2cc(C(F)(F)F)cc(C(F)(F)F)c2)cc1	/	0.0	/	/	4.6
COc1ccc(N2CC(C(=O)Nc3cc(C)on3)CC2=O)cc1 (stereo unspecified)	-8.4%	-1.5	-12.5	-2.2	8.2
O=C(C1CC1)N1CCc2cc(S(=O)(=O)NCCCN3CCCCC3)ccc21	/	-2.0	/	/	1.4
CN(C)C(=O)CSc1nnc2sc3ccccc3n12	-9.8%	0.3	-21.1	/	-3.5
O=C(Nc1ccc(S(=O)(=O)NC2CCCCC2)cc1)c1ccc(Br)o1	-3.0%	0.7	-12.7	6.3	0.8
Cc1nn(-c2cc(N3CCOCC3)ccc2N)c(=O)c2ccccc12	-13.9%	-3.7	17.3	2.0	-2.4
Oc1ccc(/C=N/N2CCN(c3ccccn3)CC2)cc1	-2.0%	-3.7	/	/	-5.7
O=C(Cc1ccc([N+](=O)[O-])cc1)c1c(O)cc(O)cc1O	-10.6%	2.2	/	/	-4.6

Brought forward from above: 6 entries, followed by the next part.
SMILES	Mtb H37Rv	RecA splice inh	YopH inh	Arbovirus anti	Mtb betalactam	others
O=C(C1CC1)N1CCc2cc(S(=O)(=O)NCCCN3CCCCC3)ccc21	/	-2.0	/	/	1.4
CN(C)C(=O)CSc1nnc2sc3ccccc3n12	-9.8%	0.3	-21.1	/	-3.5
O=C(Nc1ccc(S(=O)(=O)NC2CCCCC2)cc1)c1ccc(Br)o1	-3.0%	0.7	-12.7	6.3	0.8
Cc1nn(-c2cc(N3CCOCC3)ccc2N)c(=O)c2ccccc12	-13.9%	-3.7	17.3	2.0	-2.4
Oc1ccc(/C=N/N2CCN(c3ccccn3)CC2)cc1	-2.0%	-3.7	/	/	-5.7
O=C(Cc1ccc([N+](=O)[O-])cc1)c1c(O)cc(O)cc1O	-10.6%	2.2	/	/	-4.6
CCN(CC)CCNC(=O)c1ccc(Sc2ccc(Cl)cc2)c(NC(C)=O)c1	1.8%	0.2	/	-6.5	-4.1
N/C(CN1CCCC1=O)=N\OC(=O)c1ccc(Cl)cc1	1.3%	-3.3	-31.4	7.3	3.7
Cc1ccccc1CS(=O)(=O)CCC(=O)NCCN1CCN(c2cccc(Cl)c2)CC1	/	-1.4	-27.7	-10.6	-3.3
COc1ccc(C2=NN(C(=O)CCC(=O)O)C(c3ccc(OC)cc3)C2)cc1 (stereo unspecified)	/	-1.0	/	/	-0.4
Cc1ccc(Cc2cnc(NC(=O)/C(C#N)=C/c3ccc(-c4cccc([N+](=O)[O-])c4)o3)s2)cc1	10.7%	2.3	-14.3	-19.4	2.0
CCCn1nnc(NC(=O)/C=C/c2ccco2)n1	-3.2%	-2.4	/	/	-9.1
CC(C)C[C@H](NC(=O)c1[nH]cnc1C(=O)Nc1ccccc1)C(=O)OC(C)(C)C	72.1%	-1.6	/	/	98.2
CCOc1ccc(C(c2nnnn2Cc2ccccc2)N2CCN(C(=O)c3ccco3)CC2)cc1 (stereo unspecified)	7.7%	14.6	-25.1	/	0.2
COC(=O)c1ccc(C(=O)OC)c(NC(=S)N2CCN(c3ccccn3)CC2)c1	-6.9%	-1.2	/	4.8	25.9
Cc1ccc(C(=O)ONc2ccc(N=O)cc2)cc1	-6.0%	-5.0	-31.9	7.3	98.5
COc1ccc(O)c(/C=N/N=C/c2cccc([N+](=O)[O-])c2)c1	/	-3.3	/	/	4.7
Cc1ccc(C(C)NC(=O)/C(C#N)=C\c2c(C)[nH]c3ccccc23)cc1 (stereo unspecified)	-3.8%	/	-4.3	-35.3	3.8
CCCCC(C)(O)C/C=C/[C@H]1[C@H](O)CC(=O)[C@@H]1CCCCCCC(=O)OC (stereo partly specified)	-4.7%	/	-29.3	15.6	/
CCOC(=O)N(c1ccccc1)P1(=S)OCCO1	-7.8%	-2.6	-20.6	0.6	-4.2
COc1ccc(/C=C/C(=O)c2ccccc2O)cc1	1.4%	1.2	-14.4	-6.6	23.6

Among those listed so far, these contain a cyano group.
SMILES	Mtb H37Rv	RecA splice inh	YopH inh	Arbovirus anti	Mtb betalactam	others
Cc1ccc(Cc2cnc(NC(=O)/C(C#N)=C/c3ccc(-c4cccc([N+](=O)[O-])c4)o3)s2)cc1	10.7%	2.3	-14.3	-19.4	2.0
Cc1ccc(C(C)NC(=O)/C(C#N)=C\c2c(C)[nH]c3ccccc23)cc1 (stereo unspecified)	-3.8%	/	-4.3	-35.3	3.8

New compounds follow
SMILES	Mtb H37Rv	RecA splice inh	YopH inh	Arbovirus anti	Mtb betalactam	others
c1ccc(OCCOc2ncnc3ccccc23)cc1	2.5%	-0.3	-30.3	-3.5	2.1
O=C(NC(=S)Nc1ccccc1Br)C1CCC1	/	-2.4	/	/	6.2
N=c1sccn1CC(=O)Nc1cccc(S(=O)(=O)N2CCCCCC2)c1	-0.3%	3.9	/	-3.0	-6.5
COC(=O)/C(C#N)=C/c1cc(C)sc1C	-13.7%	-2.3	/	/	-8.1
CC(=O)Nc1cccc(C(=O)N/N=C/c2c[nH]c3ccccc23)c1	/	0.8	/	/	-4.9
CC(=O)Nc1ccc(NC(=O)c2c([N+](=O)[O-])c(C(C)(C)C)nn2C)cc1	-8.4%	-2.1	/	/	-10.1
Cc1ccc(-c2cc(=O)c3cc(C)ccc3[nH]2)cc1	-10.3%	0.4	-35.7	-19.8	-4.2
O=C(NCCSCc1ccccc1)c1cc(S(=O)(=O)N2CCOCC2)ccc1F	/	-1.6	-33.6	9.3	-4.2
O=S(=O)(Nc1ccc(N2CCCCC2)cc1)c1cccs1	-1.6%	-0.2	-50.5	-4.6	5.2
COc1ccc(C(C)(C)C)cc1NC(=O)C1CC=CCC1C(=O)O (stereo unspecified)	-13.4%	-1.5	-50.9	5.0	-2.5
NS(=O)(=O)c1ccc(CCNC(=O)COC(=O)C2CCC2)cc1	/	-1.3	/	/	-4.2
O=C(Nc1nccs1)c1cccnc1	/	2.5	/	/	-3.1
O=C(NC1CCCCC1)c1cc(C(=O)c2ccccc2Br)c[nH]1	7.1%	-1.9	/	-5.1	-1.8
CN1c2ccc([N+](=O)[O-])cc2N(C)C1(C)c1ccccc1 (stereo unspecified)	/	0.0	/	/	4.6
Cc1ccc2cc(C3CC(c4ccco4)=NN3S(=O)(=O)c3ccccc3)c(Cl)nc2c1 (stereo unspecified)	5.4%	9.4	-9.0	37.3*	21.2
COc1ccc(/C=N/NS(=O)(=O)c2ccc(F)cc2)cc1COc1cc(F)ccc1[N+](=O)[O-]	-3.0%	-1.9	/	-1.6	2.4
CCCCCCNC(=O)Cc1ccc(Br)cc1	2.5%	-4.1	/	-4.1	2.2
CC1(C)C(=O)NCCN1C(=O)CSc1nccc(-c2ccc(Br)cc2)n1	-7.7%	0.7	-6.2	-9.6	-10.2
O=C(CCc1nc2ccccc2c(=O)[nH]1)OCC(=O)c1cccc(Cl)c1	-3.3%	-3.9	-13.4	-0.9	1.2
COc1cccc(NC(=O)C2CCCN(c3ncnc4c3nc3n4CCCCC3)C2)c1 (stereo unspecified)	/	-0.9	/	/	7.7
CCOC(=O)N1CCN(C(=O)Cc2ccc(C)cc2)CC1	-3.6%	-0.9	-22.8	-1.5	-0.1
CCOC(=O)CSc1nnc(NC(=O)c2cccc(S(=O)(=O)N3CCCCC3)c2)s1	13.8%	1.1	-13.7	12.2	/
N#CCc1nc(CSc2nc3ccccc3s2)cs1	5.0%	12.9	5.0	-4.5	-3.5
CC1(C)c2[nH]c3ccccc3c2C[C@H]2C(=O)N(Cc3cccc(F)c3)C(=O)N21	79.2%	1.2	/	/	96.3
CCCCCNC(=O)Cc1cc(=O)[nH]c(=O)[nH]1	-6.8%	-0.5	-28.6	3.6	-8.2
Nc1cccc(Nc2ccccc2)c1	1.9%	2.1	/	-11.5	52.4
Cc1noc(C)c1COc1cccc(C(=O)NC(C)(C)C)c1	1.6%	-0.4	/	-2.1	-3.1
CN(CC(=O)Nc1ccc(N2CCOCC2)cc1)C(=O)C1CCCC1	-11.9%	-1.8	/	2.8	-8.4
Cc1cccc(NC(=O)/C(C#N)=C/c2ccc(Cl)cc2)n1	/	-0.3	/	/	-0.9
O=C(OCCN1C(=O)c2ccccc2C1=O)c1cc2ccccc2o1	38.4%	2.0	-25.4	10.0	97.0	Arbovirus anti repeat=-0.2
COC(=O)c1sc2nc(-c3ccccc3)c3c(c2c1N)CCCC3	0.8%	-16.5	-33.3	-2.0	7.5
O=C1[C@H]2[C@@H](c3ccc(F)cc3)N3C(=O)N(c4cccc(Br)c4)C(=O)[C@@]3(Cc3ccccc3)[C@H]2C(=O)N1C1CCCCC1	/	-0.4	/	/	38.0
CC(C)C[C@H](NC(=O)OC(C)(C)C)c1nnc(SCc2cccc(F)c2)o1	-6.6%	3.5	-15.1	-7.5	-2.9
COc1ccc(OCCNC(=O)/C=C/c2ccc([N+](=O)[O-])cc2)cc1	-1.3%	-10.2	-37.3	-1.9	9.8
Nc1oc2ccccc2c(=O)c1C=O	-13.7%	-1.0	-26.8	0.3	7.2
CCOc1nc(C)cc(C)c1S(=O)(=O)c1ccc(Cl)cc1	11.7%	1.9	/	1.4	1.9
Cn1c(SCc2n[nH]c(=S)n2-c2ccccc2)nnc1-c1ccccc1	3.4%	20.5	-27.3	16.5	0.9
CC(C)N1CCC(N2CCN(Cc3ccc(-c4ccc(Cl)cc4)o3)CC2CCO)CC1 (stereo unspecified)	0.9%	-0.1	/	-26.3	5.6
Cc1ccc2oc(C(=O)NCCC3CCCCO3)c(C)c2c1 (stereo unspecified)	/	2.3	/	/	0.7
COc1ccc(N2CC(NC(=O)N(C)CCC#N)CC2=O)cc1 (stereo unspecified)	-2.5%	-3.4	/	-1.5	-2.3
CCn1c(COc2ccc(=O)n(-c3ccccc3)n2)nnc1SCc1ccc(C)cc1	-11.0%	7.5	-47.3	3.0	-10.4
CC(Oc1ccc2c(c1)oc(=O)c1ccccc12)C(=O)NCC1CCC(C(=O)O)CC1 (stereo unspecified)	/	-1.1	/	/	-0.5
O=[N+]([O-])c1ccc(C(O)CN2CCN(Cc3ccccc3)CC2)cc1 (stereo unspecified)	/	0.4	/	/	-5.0
COC(=O)c1cccnc1NC(=S)NC(C)C	1.0%	-8.2	/	1.8	-4.0
COC(=O)c1ccc(Oc2nc(NC(C)(C)C)nc(N3CCOCC3)n2)cc1	-0.5%	0.4	/	11.9	-9.5
COc1cc(OC)cc(C(=O)NNC(=O)CCc2ccccc2)c1	-5.9%	-1.0	/	9.7	-10.7
CCCn1c(SCC(=O)Nc2c(C)cccc2C)nnc1C(C)C	-0.2%	3.8	-8.1	7.0	-2.4
C/C(Cn1nc([N+](=O)[O-])cc1C)=N\NC(=O)COc1ccc(Cl)cc1Cl	-5.9%	0.3	5.5	-0.3	11.7
CC(=O)c1c(C)[nH]c(C(=O)N2CCc3ccccc32)c1C	-1.6%	/	-29.8	-1.8	-8.7
CCOC(=O)Cn1c(=O)oc2cc(S(=O)(=O)N3CCCc4ccccc43)ccc21	-4.3%	3.4	-36.4	22.2	-1.2	Arbovirus anti repeat=0.8
Cc1cc(C)c(C)c(S(=O)(=O)N2CCN(C(=O)c3ccc4c(=O)n5c(nc4c3)CCC5)CC2)c1C	/	-3.7	/	/	-11.7
O=S(=O)(NCCOC12CC3CC(CC(C3)C1)C2)c1cccc2nsnc12	-1.1%	1.5	4.5	10.8	-2.6
O=C(C1=C[C@@H]2[C@H]3C(=O)N(c4ccc(Cl)cc4)C(=O)[C@H]3[C@@H](C(=O)c3ccc(Cl)cc3)N2C=C1)c1ccccc1	3.5%	4.6	-28.6	-7.4	0.7
CN1CCN(c2ccc(C(=O)c3ccc(F)cc3)cc2)CC1	1.2%	1.5	-43.2	1.4	10.4
CCCCN(CCCC)CCNC(=O)CN1C(=O)CSc2ccc(S(=O)(=O)N3CCCCC3)cc21	/	0.7	/	/	-0.4

A portion of the library; count on the stated rates, not on these rows.
